MT1-MMP reporter – inhibitors of MT1-MMP promoter transcription, cell-based, luciferase reporter, luminescence (AID 618) | MT1-MMP promoter luciferase reporter cells, luminescence | calls from a first round at 10 µM; hits with a dose series show EC50 in µM | actives 0.62% (n = 87,000);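 active means over half of the reporter light lost at 10 µM or EC50 under 50 µM; inactive means the rest and hits that failed the dose series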;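 further: actives suppress MT1-MMP promoter-driven transcription so potencies describe inhibitors; HT1080 fibrosarcoma cells; overnight exposure; toxic or luciferase-blocking compounds were not removed from the actives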
Hsc70 – Hsc70 inhibitors, probe displacement, primary screen, biochemical, fluorescence polarization (AID 568) | Heat shock cognate 71 kDa protein (Homo sapiens) | Hsc70 fluorescence polarization, probe displacement; higher % means a stronger effect; strong numbers were not always called active | displacement, % at 20 µM; hits with a dose series show IC50 in µM | 83,000 tested, under 10 active;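 active means displacement above 50% without optical interference and an IC50 on retest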;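 further: ATPase domain with a fluorescein-tagged ATP probe; 0% = vehicle and 100% = excess ADP; read after one hour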
WNV NS2B-NS3 inh – inhibitors of WNV NS2B-NS3 protease, primary screen, biochemical, fluorogenic substrate; Genome polyprotein (West Nile virus), P06935; AID 577, 2007; actives 0.18% (n = 65,000); z-score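 (tested at a level between 10 and 100 µM)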; fluorogenic substrate Ex360/Em465; active compounds read low;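 active means z-score at -3 or under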;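 further: score is relative to mean and spread of the compound wells of a plate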
Target sequence (P06935 1371-1501 limits assumed): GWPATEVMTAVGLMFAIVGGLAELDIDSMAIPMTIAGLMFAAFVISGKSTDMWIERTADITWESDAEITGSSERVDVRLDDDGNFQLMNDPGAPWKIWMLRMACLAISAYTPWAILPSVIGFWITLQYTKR
Target sequence (P06935 1502-1679 limits assumed): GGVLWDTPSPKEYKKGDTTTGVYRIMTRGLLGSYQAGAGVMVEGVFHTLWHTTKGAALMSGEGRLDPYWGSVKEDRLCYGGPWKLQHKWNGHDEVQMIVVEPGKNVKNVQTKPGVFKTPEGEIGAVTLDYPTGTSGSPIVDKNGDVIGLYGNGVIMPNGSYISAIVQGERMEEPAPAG
* marks the source's active call; other numbers are inactive results; i = inactive; x = not tested or not shown.

Each structure is followed by: Hsc70, WNV NS2B-NS3 inh, MT1-MMP reporter
CC(C)(C)NC(=O)NC(=O)CN1CCN(c2ncc(C(F)(F)F)cc2Cl)CC1
  -4.9%, x, i
COc1cccc(C(C(=O)NCc2ccco2)N(C(=O)Cn2nnc3ccccc32)C2CC2)c1OC (stereo unspecified)
  0.0%, 1.68, i
O=C1CSC(c2ccccc2F)N1CCN1CCCCC1 (stereo unspecified)
  7.0%, 1.33, i
COc1ccc2ncn(-c3ccccc3)c2c1
  0.6%, 1.45, i
Cc1ccc(-n2c(=O)c3sccc3n(CC(=O)N3CCCC3)c2=O)cc1
  0.6%, 1.06, i
Cc1cc(=O)c2c(o1)CC(C)(C)CC2=O
  -5.0%, x, i
Cc1nc(N)sc1-c1csc(Nc2ccc(Cl)cn2)n1
  -2.7%, 0.58, i
O=C(OCC(=O)N1CCN(c2ccccc2)CC1)c1cccc(Cl)c1
  -9.5%, x, i
Cn1cc(S(=O)(=O)N2CCN(Cc3ccccc3)CC2)c(=O)n(C)c1=O
  2.3%, 1.99, i
Cc1cc(NC(=O)CCC(=O)N(CC(=O)NC2CCCC2)c2ccccc2)no1
  1.3%, x, i
Cc1cc(C)cc(NC(=O)CSCc2nc3c(nnn3Cc3ccc(F)cc3)c(=O)[nH]2)c1
  1.3%, x, i
O=C1NCCCC1C(=O)NCCN1C(=O)CCC1=O (stereo unspecified)
  1.5%, 0.14, i
Cc1ccc(/C=N/N2CCN(Cc3cccc4ccccc34)CC2)o1
  -3.6%, x, i
CCN(CC)S(=O)(=O)c1ccc(N2CCOCC2)c(NC(=O)C(=O)c2c(-c3ccccc3)cc3ccccn23)c1
  -2.7%, x, i
O=c1c(-c2ccc(Cl)cc2)coc2c(CN3CCOCC3)c(O)ccc12
  -0.7%, 0.46, i
c1nc(N2CCCC2)c2[nH]cnc2n1
  10.6%, x, i
CCOC(=O)CN1C(=O)NC2NC(=O)NC21 (stereo unspecified)
  0.2%, 0.47, i
O=C(CSc1nnc(-c2ccccc2)o1)N1CCN(c2ccccc2)CC1
  -1.0%, 0.11, i
COc1ccc(NS(=O)(=O)c2ccc(NC(=O)C3CCCO3)cc2)cc1 (stereo unspecified)
  4.5%, 0.11, i
C=CCN1C(=O)CSC1=Nc1cccc(O)c1
  3.8%, 0.39, i

Later entries.
Each structure is followed by: Hsc70, WNV NS2B-NS3 inh, MT1-MMP reporter
COc1ccccc1Oc1ccc(S(=O)(=O)N2CCOCC2)cc1S(=O)(=O)N1CCOCC1
  -4.7%, 0.8, i
COc1cccc(C2=CC(c3cccc(OC)c3OC(F)F)n3nnnc3N2)c1 (stereo unspecified)
  -4.6%, 1.74, i
Cc1nc2sc(C(c3ccc(C(C)C)cc3)N3CCN(CCO)CC3)c(O)n2n1 (stereo unspecified)
  2.4%, -0.84, i
COc1ccccc1C(O)P(=O)(OC(C)C)c1ccc(N(C)C)cc1 (stereo unspecified)
  13.2%, 0.21, i
COc1ccc(OC)c(NC(=O)Cn2cnc3c(cnn3-c3ccccc3)c2=O)c1
  -1.5%, 2.47, i
O=C(CN1C(=O)NC2(CCCCCC2)C1=O)N1CCN(S(=O)(=O)c2ccc(Cl)cc2)CC1
  -3.2%, x, i
O=C1SC(c2ccccc2)=C/C1=C\N1CCCCC1
  2.0%, 0.9, i
Nn1c(SCC(=O)NC2CCCCC2)nnc1C1CC1
  -6.6%, 0.58, i
Cc1ccc(S(=O)(=O)N2CC(O)CC2C(=O)Nc2ccc3c(c2)CCC3)cc1 (stereo unspecified)
  -3.7%, 1.22, i
C=CCOC(=O)CCCC(=O)NC1CCCCC1
  2.9%, 0.41, i
CCOC(=O)C(CCC(=O)O)(CCC(C)C)c1csc(N)n1 (stereo unspecified)
  4.0%, x, i
N=P(N1CCOCC1)(N1CCOCC1)C12CC3CC(CC(C3)C1)C2
  1.6%, -0.66, i
CC(CNCc1ccc2c(c1)OCO2)NCc1ccc2c(c1)OCO2 (stereo unspecified)
  -1.3%, 0.00226, i
COc1ccc(C(=O)c2ccc(N3CCOCC3)cc2)c(OC)c1
  4.1%, 0.97, i
N#Cc1c(NC(=O)CSc2nc(-c3ccco3)cc(C(F)(F)F)n2)sc2c1CCCC2
  7.0%, 0.44, i
Clc1ccccc1CSc1ncn(-c2ccccc2)n1
  3.6%, x, i
COc1ccc(C(=O)CSc2nnc(CNc3ccc(C)cc3C)o2)cc1
  2.7%, -0.34, i
c1ccc2c(c1)nc(NCC1CCCO1)c1nnnn12 (stereo unspecified)
  12.8%, -1.04, i
COc1cc(C(=S)N2CCC(C)CC2)ccc1O
  3.2%, x, i
COc1ccc(-c2nnc(SCC(=O)NCc3ccco3)n2C)cc1
  4.3%, 0.67, i

Some of the entries so far, field by field:
C=CCOC(=O)CCCC(=O)NC1CCCCC1
  Hsc70: 2.9%; WNV NS2B-NS3 inh: 0.41; MT1-MMP reporter: i
COc1cccc(C2=CC(c3cccc(OC)c3OC(F)F)n3nnnc3N2)c1 (stereo unspecified)
  Hsc70: -4.6%; WNV NS2B-NS3 inh: 1.74; MT1-MMP reporter: i

Continued.
Each structure is followed by: Hsc70, WNV NS2B-NS3 inh, MT1-MMP reporter
COc1ccc(OCC(O)Cn2cnc(-c3ccc(Br)cc3)c2)cc1 (stereo unspecified)
  -3.6%, x, i
NC(=O)CSCc1nc2ccccc2s1
  -6.1%, x, i
COc1ccc(OC)c2sc(NC(=O)C(C)C)nc12
  2.6%, 0.21, i
COC(=O)c1oc2ccc(OC)cc2c1N
  7.8%, -0.87, i
CCOC(=O)C1C(=O)C=C(C)C(C(=O)OCC)C1c1ccc(OC)cc1 (stereo unspecified)
  2.8%, 0.55, i
Cc1nnc(C)n1/N=C/c1cc(Br)cc(Br)c1O
  -3.5%, 0.19, i
O=S(=O)(c1ccc(Br)s1)N1CCN(Cc2ccc3c(c2)OCO3)CC1
  -4.3%, x, i
COC(=O)CCNc1ccc2c(c1)OCCO2
  4.1%, 0.92, i
Cc1[nH]c2c(Br)cccc2c1[C@H]1[C@@H](CC#N)C1(C)C
  1.3%, x, i
COc1cc(-c2nnc(-c3cc(OC)c(OC)c(OC)c3)o2)cc(OC)c1OC
  -0.3%, x, i
NC(=O)C1(N2CCCCC2)CCN(Cc2nc3ccccc3c(=O)[nH]2)CC1
  -1.3%, -0.46, i
COc1ccc(OC)c(-c2cn(S(=O)(=O)c3ccccc3)nc2N)c1
  0.2%, x, i
CC(=O)c1ccc(OCCCC(=O)n2nnc3ccccc32)cc1
  22.3%, 1.02, i
Cn1cnnc1SCNC(=O)C(F)(F)F
  0.0%, 1.85, i
O=S1(=O)C=C(Sc2nc3ccccc3s2)c2ccccc21
  -0.1%, -0.5, i
CC(=O)Oc1ccc(NC(=O)CSc2ccccc2)cc1
  2.4%, 0.17, i
CC(C)CCn1c(Br)nc2c1c(=O)n(CC(N)=O)c(=O)n2C
  -1.3%, -1.31, i
CCOc1ccccc1NC(=O)CCn1c(=O)oc2ccccc21
  -3.8%, 0.74, i
CCOC(=O)N1CCN(C(=O)c2cnn3c(C(F)F)cc(-c4ccc(C)cc4)nc23)CC1
  -4.4%, -0.43, i
N#Cc1cccc2cnccc12
  -2.0%, -0.11, i

The last 3 entries of the section above open the next one.
Each structure is followed by: Hsc70, WNV NS2B-NS3 inh, MT1-MMP reporter
CCOc1ccccc1NC(=O)CCn1c(=O)oc2ccccc21
  -3.8%, 0.74, i
CCOC(=O)N1CCN(C(=O)c2cnn3c(C(F)F)cc(-c4ccc(C)cc4)nc23)CC1
  -4.4%, -0.43, i
N#Cc1cccc2cnccc12
  -2.0%, -0.11, i
Cc1cc2c(cc1C)NC(c1c(C)n(C)n(-c3ccccc3)c1=O)C1=C(CC(C)(C)CC1=O)N2 (stereo unspecified)
  66.6%, x, i
CCc1ccccc1N(CC(=O)NCCSCc1ccco1)S(C)(=O)=O
  -1.1%, 0.32, i
CC1(C)Oc2ccc(NC(=O)c3ccco3)cc2O1
  0.8%, x, i
O=C(OCn1nnc2ccccc2c1=O)C1CCCCC1
  9.4%, 1.96, i
COc1cc(=O)n2c(-c3ccccc3)csc2n1
  -4.5%, 0.39, i
N#CCCN1CCN(C(=S)c2ccc(-c3cccc(Cl)c3)o2)CC1
  -0.4%, 1.31, i
Cn1c(=O)c2c(SCC(=O)NCc3ccco3)nc(CC(C)(C)C)nc2n(C)c1=O
  3.5%, 0.35, i
Cc1cc(-c2ccccc2)c(C#N)c(N)n1
  -1.9%, -0.59, i
CC(=O)c1cccc(NC(=O)Nc2cnn(Cc3ccc(F)cc3)c2)c1
  -0.9%, -0.49, i
COC(=O)\C(C(C)=O)=C(/C=C/C=C/N(C)C)N(C)C
  3.6%, 1.09, i
Cc1ccc(Nc2nc(CSc3nnc(-c4cccs4)o3)cs2)cc1
  -8.7%, -0.55, i
O=C(NCCCN1CCCC1=O)c1ccccc1NS(=O)(=O)c1ccc(Br)cc1
  -0.3%, x, i
COc1cccc(-c2nn3c(-c4cccc(C)c4)nnc3s2)c1
  0.5%, 0.09, i
O=C(c1ccco1)N1CCC(c2ccccc2)C1 (stereo unspecified)
  0.5%, -0.27, i
CCCC(=O)Nc1ccc2oc(-c3cccnc3)nc2c1
  1.6%, -0.03, i
COC(=O)c1ccc(/C=N/n2cnnc2)cc1
  -5.1%, 2.23, i
Cn1c(SCC(=O)NCc2ccco2)nnc1-c1cccs1
  0.5%, -0.72, i
COc1ccc(OC)c(C(c2nnnn2Cc2ccccc2)N2CCN(C)CC2)c1 (stereo unspecified)
  -2.9%, -0.29, i
COc1ccc(CNC(=O)c2cc(-c3ccc(OC)c(OC)c3)on2)cc1
  -6.6%, -0.2, i
COc1ccc(NC(=O)COC(=O)c2c3c(nc4ccccc24)CCCC3)cc1
  2.5%, x, i

(next part)
Each structure is followed by: Hsc70, WNV NS2B-NS3 inh, MT1-MMP reporter
O=S(=O)(c1ccc2nc(Cc3cccc(C(F)(F)F)c3)[nH]c2c1)N1CCOCC1
  0.8%, 0.14, i
Cc1sc(-n2c(C)cc(C=O)c2C)c(C(=O)O)c1C
  -0.9%, x, i
O=C(NCc1ccncc1)c1ccc(Br)cc1
  -2.4%, -0.06, i
O=c1n(Cc2ccc(Cl)cc2)c2sc3c(c2c2ncnn12)CCCC3
  8.1%, -0.1, i
CCCCOc1ccc(Br)cc1/C(C)=N/NC1=NCCN1
  -0.4%, x, i
NC(Cc1cccc2nsnc12)C(=O)O (stereo unspecified)
  7.9%, -0.88, i
O=C(Nc1cccc(C(F)(F)F)c1)c1ccco1
  7.0%, 0.17, i
Cc1cc(C)n(-c2ncnc3sc4c(c23)CC(C)CC4)n1 (stereo unspecified)
  0.4%, 2.56, i
O=C(C1CCCN(S(=O)(=O)Cc2ccccc2)C1)N1CCCCC1 (stereo unspecified)
  2.9%, 0.09, i
Cc1nnc2c3ccccc3c(-c3ccc(O)cc3)nn12
  1.6%, x, i
Cc1cc(C(=O)N2CCN(C/C=C/c3ccccc3)CC2)no1
  1.9%, 1.17, i
CCn1c(COc2ccccc2)nnc1SCC(=O)Nc1cc(C)ccc1OC
  4.6%, x, i
Cn1c2ccccc2c2ncn(CCN3CCOCC3)c(=O)c21
  -0.1%, 0.29, i
O=C(c1ccc(Oc2ccccc2)cc1)c1nc2c(n1O)CCCC2
  0.7%, x, i
CC(=O)Nc1nonc1-c1nc2ccccc2n1CCC(C)C
  -3.6%, 0.95, i
O=C(Cn1cnc2ccccc2c1=O)OCCCCN1C(=O)c2ccccc2C1=O
  -0.5%, 1.24, i
Cc1ccnc(NC(=O)CCC(=O)N(CC(=O)NC2CCCCC2)CC2CCCO2)c1 (stereo unspecified)
  -7.5%, -1.03, i
Cc1ccccc1C(=O)Nc1cccc(NC(=O)Cn2cnc3c(=O)n(C)c(=O)n(C)c32)c1
  -2.2%, 0.09, i
Cc1cc(NC(=O)c2ccc3c(c2)C(=O)N(C)C3=O)no1
  -2.8%, x, i
O=C(NCc1ccco1)C(c1ccccc1)N(C(=O)Cc1cccs1)c1ccccc1F (stereo unspecified)
  -0.2%, x, i

Following part.
Each structure is followed by: Hsc70, WNV NS2B-NS3 inh, MT1-MMP reporter
COc1cccc(OCC(O)CO)c1 (stereo unspecified)
  -1.6%, 0.61, i
Nc1c(C(=O)NC2CCCCC2)c2nc3ccccc3nc2n1/N=C/c1ccco1
  -16.8%, 0.00486, i
CC1(C)CC(=O)C2(CC3=C(CC(C)(C)CC3=O)O2)C(=O)C1
  -1.9%, 0.1, i
COc1ccc(-c2ccc(S(=O)(=O)N3CCOCC3)cc2)cc1
  2.0%, 0.12, i
COc1ccc(OC)c(/C=N/NC(=O)c2cc[n+](CC(=O)c3ccccc3)cc2)c1
  3.4%, x, i
O=C(c1ccco1)N1CCN(C(=O)c2cccn3c(=O)c4c5c(sc4nc23)CCCC5)CC1
  -2.2%, 0.86, i
Cc1ccc(-n2c3c(c(=O)[nH]c2=O)C(C(F)(F)F)(C(F)(F)F)NC(=O)N3)cc1
  6.0%, x, i
CCOC(=O)N1CCN(CC(=O)Nc2cc(OCC)ccc2OCC)CC1
  2.4%, -0.58, i
CCn1c2ccccc2c2cc(/C=N/n3c(C)nnc3C)ccc21
  0.4%, x, i
c1ccc(Cc2nnc3sc(-c4ccco4)nn23)cc1
  -3.5%, -0.62, i

Some of the compounds tested, so the mix of outcomes need not match the whole.
